Anaer choline gr = inhibitors of anaerobic choline-dependent gram-negative bacterial growth. hit rate 0.2% among 55,000. calls only. Gram-negative bacterium anaerobic choline minimal medium, absorbance growth; stronger effect = lower value; many inactives read as strong as hits in the columns shown;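 active = growth z-score on choline under -2 at 7 or 20 h with little or no fall on glycerol, limits in tiers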;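 also: stock transfer was 300 nL into about 50 µL; the organism is E. coli; final concentration not given here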
Anaer choline gr early = recorded beside Anaer choline gr, whose call it bears; z-score; measured here: choline growth z-score, timepoint 1;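 score of optical density at 7 h as mean of two plates; lower means less growth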
Starred values were filed as active, the others as inactive; i = inactive; & = joins results of further samples.

Anaer choline gr early	Anaer choline gr	SMILES
-0.47	i	COc1cccc(-c2nc(C)c(-c3ccc(SCc4ccccn4)nn3)s2)c1
0.47	i	Cc1noc(C)c1S(=O)(=O)N1CCCn2nc(-c3cccs3)cc2C1
-1.1	i	Cc1cc2nc(C)c(=O)n(CC(=O)NCCc3c[nH]c4ccccc34)c2cc1C
0.92	i	CCc1ccc(-c2csc(Cc3nc(-c4ccc5c(c4)OCO5)no3)n2)cc1
1.1	i	CCOc1ccc(-c2csc(Cc3nc(-c4ccccc4C)no3)n2)cc1
-1.4	i	O=C1NCCN1c1ncc([N+](=O)[O-])s1
0.55	i	CC(C)Cc1cc(-c2nn3c(Cc4ccc(Cl)cc4)nnc3s2)n[nH]1
-0.79	i	Cc1nc(-c2cc(S(=O)(=O)N(C)C3CCCCC3)cn2C)sc1C(=O)N1CCCC1
1	i	CS(=O)(=O)N1CCCc2cc(C(=O)N3CCN(c4ccccc4F)CC3)ccc21
-0.48	i	CCc1ccc(-c2cc3c(=O)n(CC(=O)NCC4CCCO4)ncn3n2)cc1 (stereo unspecified)
-0.54	i	CC(C)c1nnc2c(SCc3cccc(F)c3)nc3ccccc3n12
-0.02	i	COc1ccc(OC)c(CNC(=O)c2ccc(-c3cccnc3)cc2)c1
1.7	i	O=C(NCCC1=CCCCC1)c1ccc(-c2nc(-c3ccccc3)no2)cc1
-0.39	i	O=C(Nc1ccccc1)NC(c1ccccc1)c1nnc(-c2ccccc2)o1 (stereo unspecified)
-0.44	i	CCOc1c(N2CCOCC2)c(=O)c1=O
-0.19	i	CC1CN(S(=O)(=O)c2cc3c(cc2Cl)Oc2ccccc2NC3=O)CC(C)O1 (stereo unspecified)
0.45	i	C=CCn1c(SCC(=O)Nc2ccccc2)nc2sc(CC)cc2c1=O
0.76	i	CCN(CC)CCCNC(=O)c1cc(-c2ccncc2)nc2ccc(S(=O)(=O)N3CCOCC3)cc12
-1.2	i	Cc1ncc2c(N3CCC(C(N)=O)(N4CCCCC4)CC3)nccn12
-0.75	i	Cc1sc(-c2cc(C(F)(F)F)on2)cc1S(=O)(=O)N1CCN(c2ccc(Cl)cc2)CC1
1.9	i	O=C(NCCc1c[nH]c2ccccc12)C1COc2ccccc2C1 (stereo unspecified)
-0.26	i	CCC(=O)N1CCc2cc(-c3ccc(C(=O)N4CCN(c5ccccn5)CC4)cc3)ccc21
-0.03	i	C=CCN[C@H]1CS(=O)(=O)C[C@@H]1S(=O)(=O)c1ccc(F)cc1
0.63	i	CN(c1ccc2c(c1)OCCO2)S(=O)(=O)c1ccsc1-c1nc(-c2ccccc2)no1
-0.06	i	Cc1nc(N(C)C)cc(N2CCN(C(=O)Nc3cccc(Cl)c3)CC2)n1
0.38	i	CCC1Cn2c(C(=O)NCCCN3CCCC3)cc3c(Cl)ccc(c32)O1 (stereo unspecified)
-0.24	i	O=C(Nc1ccc2c(c1)OCO2)C1CCN(c2cc(-c3ccc(F)cc3)ncn2)CC1
-0.39	i	COCc1cnc2c(c1SC)c(=O)n(C)c(=O)n2C
0.25	i	CN(C(=O)Cn1ncc2c1-c1ccccc1OC2)c1ccc(F)cc1
-0.46	i	CCCCNC(=O)Cn1c(C)nc2onc(CC)c2c1=O
1.2	i	COCCNc1nc(Nc2ccccc2)c2cnn(C)c2n1
1.2	i	CCCCC(=O)Nc1cc(-c2nc3ccccc3[nH]2)ccc1C
0.59	i	CCCCCCn1c(CN(C)C(C)=O)nc2ccccc21
-0.28	i	COCC1=C(C(=O)OC(C)OC(=O)OC(C)C)N2C(=O)[C@@H](NC(=O)/C(=N\OC)c3csc(N)n3)[C@H]2SC1 (stereo partly specified)
-0.86	i	CC(C)(C)c1ccc(C(=O)NCC(=O)OCc2cc(=O)n3nc(C4CC4)sc3n2)cc1
1.3	i	O=C(c1ccccc1-c1ocnc1C(=O)N1CCN(c2ccc(Cl)cc2)CC1)N1CCCCC1
-0.4	i	O=C(O)c1ccc(Nc2c(-c3cccc(Br)c3)nc3cnccn23)cc1
-0.8	i	Cc1cc(C)c(NC(=O)c2cc(-c3ccncc3)n[nH]2)c(C)c1
0.72	i	O=S(=O)(c1cc(-c2nnc(C3CCC3)o2)co1)N1CCN(c2ccccc2F)CC1
0.07	i	O=S(=O)(c1ccc(Br)cc1)N1CCN(c2cc(-c3ccc(F)cc3)ncn2)CC1
-1.4	i	CN1CCC2(CC1)N=C(c1ccccc1O)CC(c1ccccc1O)N2 (stereo unspecified)
0.42	i	CCn1c(CN(c2ccc(F)cc2)S(C)(=O)=O)nnc1SCC(=O)c1ccccc1
0.02	i	COc1cccc(C(=O)N2CCCN(Cc3noc(-c4ccccc4)n3)CC2)c1
-0.69	i	CCOc1ccccc1-c1nnc(-c2ccc3c(c2)OCO3)o1
0.63	i	COc1ccc(C(=O)NCCc2sc(-c3ccc(F)cc3)nc2C)c(OC)c1
-0.36	i	O=C(Nc1ccccc1F)c1cc(-c2ccncc2)n[nH]1
-0.86	i	COc1ccc(NC(=O)CCCn2nc(C)c3c(C)n(-c4ccccc4)nc3c2=O)cc1
-1.2	i	COc1ccc(OC)c(-c2csc(Nc3ccc(Br)cn3)n2)c1
1.1	i	Cc1ccc(OCc2nc(C)c(C(=O)Nc3nccs3)s2)cc1C
-0.3	i	CC(=O)Nc1ccc2nc(N3CCC(C(=O)Nc4cccc(Cl)c4)CC3)cc(C)c2c1

Sorted by formula weight (highest first): part of the list above.
Anaer choline gr early	Anaer choline gr	SMILES
0.38	i	CCC1Cn2c(C(=O)NCCCN3CCCC3)cc3c(Cl)ccc(c32)O1 (stereo unspecified)
1.1	i	Cc1ccc(OCc2nc(C)c(C(=O)Nc3nccs3)s2)cc1C
1.2	i	CCCCC(=O)Nc1cc(-c2nc3ccccc3[nH]2)ccc1C

The results go on:
Anaer choline gr early	Anaer choline gr	SMILES
-0.45	i	Cc1nc(C)c(C(=O)Nc2nc(-c3ccccc3)cs2)s1
0.42	i	N#CC1=CN(c2ccc(Cl)cc2Cl)c2cc(Cl)ccc2S1(=O)=O
0.22	i	CC(C)n1cnc2nc(CSc3ccc(NC(=O)c4ccccc4Cl)cc3)cc(=O)n21
0.62	i	Cc1ccc(-c2nc(CSc3nc(C)c(CCO)c(=O)[nH]3)c(C)o2)cc1
0.16	i	Clc1ccc(OCc2nn3c(-c4ccccn4)nnc3s2)cc1
0.38	i	COc1cc(NC(=O)Cn2cc(-c3nc(-c4ccc(C)cc4)no3)ccc2=O)cc(OC)c1
-0.11	i	Cn1nnc2c(NCCSc3c[nH]c4ccccc34)ncnc21
1.1	i	CCOC(=O)c1ccc(NC(=O)NC(c2ccccc2)c2nnc(-c3ccccc3)o2)cc1 (stereo unspecified)
0.77	i	COc1ccccc1NCc1cc(=O)n2[nH]c(NCc3ccccc3)nc2n1
-0.38	i	COc1ccc(N2CC(C(=O)NCc3nnnn3-c3ccc(OC)cc3)CC2=O)cc1 (stereo unspecified)
1.2	i	CCn1c2ccccc2n2cc(-c3ccc(F)cc3)nc12
1.3	i	CCOc1ccccc1NC(=O)C1CCCN(c2ncnc3onc(-c4ccc(F)cc4)c23)C1 (stereo unspecified)
1.6	i	O=C(Cn1c(=O)c(C(F)(F)F)nc2ccccc21)NCc1ccccc1Cl
2.8	i	Cc1nn(-c2ccccc2)c2c1-c1sc(C(=O)N3CCN(c4ncccn4)CC3)cc1CC2
-1.8	i	CCOC(=O)C(CC)SC1=NS(=O)(=O)c2ccccc2N1 (stereo unspecified)
0.94	i	COc1ccc(C(=O)c2oc3ccccc3c2NC(=O)c2ccc(Cl)cc2)cc1OC
-1.1	i	CC(=O)Nc1ccc2nc(N3CCC(C(=O)Nc4ccc5c(c4)OCCO5)CC3)cc(C)c2c1
0.05	i	Cc1ccc(C(=O)Nc2c(C)nc(Nc3ccccc3)nc2Nc2ccccc2)cc1
-0.84	i	O=C(NC1CCCCC1)N1CCN(Cc2nc3cccnc3n2-c2ccccc2)CC1
1.8	i	COc1ccc(CC(=O)Nc2cccc(-c3nc4cccnc4s3)c2)cc1OC
0.67	i	CCCCN(C)c1ccc2nnc(CCc3nc(-c4cccc(Br)c4)no3)n2n1
-0.49	i	Cc1nn2c(C(F)(F)F)cc(-c3cccnc3)nc2c1-c1ccccc1
0.52	i	CC1CCCN(S(=O)(=O)c2cccc(N)c2)C1 (stereo unspecified)
0.88	i	CCN(C1CCS(=O)(=O)C1)S(=O)(=O)c1cc(N2C(=O)CCS2(=O)=O)ccc1C (stereo unspecified)
0.61	i	CC1CCN(S(=O)(=O)c2cccn(Cc3ccccc3F)c2=O)CC1
1.2	i	COc1cccc(C(=O)Nc2ccc(SCc3nnc(-c4ccccc4)o3)cc2)c1
-0.37	i	COC(=O)c1ccccc1NC(=O)Cn1cc(S(=O)(=O)c2ccc(C)cc2C)c(=O)c2ccc(C)nc21
-0.57	i	Cc1nn(-c2nc3ccccc3o2)c2c1C(c1ccc(C(=O)O)cc1)CC(=O)N2 (stereo unspecified)
-0.49	i	O=c1[nH]cnc2c(-c3cccc(F)c3)c[nH]c12
1	i	COc1ccc(C2N(c3ccc(-c4ccccc4)cc3)C(=O)N3CCCN23)cc1 (stereo unspecified)
-2.5	i	O=C(NCC1CCN(Cc2cccc(Cl)c2)CC1)c1ccc2cccc(O)c2n1
0.02	i	O=c1[nH]nc(SCc2nc(-c3ccc(F)cc3)no2)n2nc(-c3ccc(F)cc3)cc12
-0.16	i	COc1cccc(-c2nc(Cn3c(C(=O)c4cccc(F)c4)nc4ccccc43)c(C)o2)c1OC
0.13	i	NC(=O)c1ccccc1NC(=O)C1Nc2cc(F)ccc2S(=O)(=O)N1 (stereo unspecified)
0.14	i	O=C(C1CCC(=O)N1S(=O)(=O)c1ccccc1)N1CCN(c2ccccc2F)CC1 (stereo unspecified)
-0.37	i	CCCCC(=O)Nc1ccc(N2CCCN(c3ccc(Cl)nn3)CC2)c(C(=O)O)c1
-1.8	i	CCN1CCN(C(=O)C2CCN(C3=NS(=O)(=O)C(c4ccc(OC)cc4)=C3C)CC2)CC1
1.5	i	CCOc1ccc(C2CC(=O)Nc3c2cnn3-c2ccc3nncn3n2)cc1OC (stereo unspecified)
-1.1	i	Cn1nc(-c2nnc(-c3ccccc3)o2)c2c1CCN(S(=O)(=O)c1ccc3c(c1)CCC3)C2
0.79	i	Cc1cc(=O)n(CC(=O)N2CCc3ccccc32)c(-n2nc(C)cc2C)n1
0.13	i	O=C(NCC1CCCO1)C1CCN(c2cnc(N3CCSCC3)nc2)CC1 (stereo unspecified)
-1.3	i	CN1CCN(C(c2ccccc2)c2ccc(Cl)cc2)CC1 (stereo unspecified)
0.64	i	Fc1ccc(CNC2=NCCNC23CCC(c2ccccc2)CC3)cc1 (stereo unspecified)
0.66	i	COC(=O)c1c(-c2ccc(Cl)cc2)noc1N1CCN(C)CC1
0.49	i	Cc1cc(N2CCN(C)CC2)n2nc(CN3CCCCC3C)nc2n1 (stereo unspecified)
1.2	i	O=C(CSc1nc2c([nH]c3ccccc32)c(=O)n1-c1ccccc1)Nc1ccc2c(c1)OCO2
-1.5	i	CCN1CCCC1CNC(=O)c1nnc(-c2oc3ccc(C)cc3c2C)o1 (stereo unspecified)
0.93	i	CCOC(=O)c1c(NC(=O)CSc2nnc(CNC(=O)COc3ccccc3)n2C)sc2c1CCC2
1.5	i	Cn1c(=O)n(C)c2cc(SC3CCCCC3)c(NS(=O)(=O)c3ccc(Br)cc3)cc21
-0.01	i	CC1CCN(c2nc(C(=O)NCCCOC(C)C)nc3c2cnn3C)CC1

Continuation:
Anaer choline gr early	Anaer choline gr	SMILES
1.1	i	CCCCC(C)(C)[C@H](O)/C=C/[C@H]1[C@H](O)CC(=O)[C@@H]1CC(=O)CCCCC(=O)O
-0.4	i	Cc1ccc2[nH]cc(CCNC(=O)Cn3nc(C)c4nn(-c5ccccc5)c(C)c4c3=O)c2c1
0.27	i	CCSc1ncc(Cl)c(C(=O)N(Cc2cccc(Cl)c2)C2CCS(=O)(=O)C2)n1 (stereo unspecified)
0.63	i	Cc1cccc(NC(=O)C2CCCN(S(=O)(=O)Cc3ccc(F)cc3)C2)c1 (stereo unspecified)
0.83	i	Cc1cccc(NC(=O)C(C)n2nc(C)c(Cc3ccccc3)c2C)c1C (stereo unspecified)
0.22	i	O=C(NCc1ccc2c(c1)OCO2)C1CCN(c2cc(-c3ccc(F)cc3)ncn2)CC1
0.98	i	Cc1ccc2c(c1)-c1c(cnn1CC(=O)NCCCN(Cc1ccccc1)C(C)C)CO2
0.86	i	CC(C)n1cnnc1C1CCCN(C(=O)c2cccs2)C1 (stereo unspecified)
-0.2	i	O=C(Nc1ccccc1-c1nc(-c2ccccc2)no1)C1CC(=O)N(C2CCCCC2)C1 (stereo unspecified)
0.61&0.7	i	CN=C(N)NCCC[C@H](N)C(=O)O

3 successive compounds out of the list so far, for reference:
Anaer choline gr early	Anaer choline gr	SMILES
0.86	i	CC(C)n1cnnc1C1CCCN(C(=O)c2cccs2)C1 (stereo unspecified)
-0.2	i	O=C(Nc1ccccc1-c1nc(-c2ccccc2)no1)C1CC(=O)N(C2CCCCC2)C1 (stereo unspecified)
0.61&0.7	i	CN=C(N)NCCC[C@H](N)C(=O)O

Record cards, from the list above.
CN=C(N)NCCC[C@H](N)C(=O)O is listed as Anaer choline gr early: 0.61&0.7; Anaer choline gr: i
Cc1ccc2[nH]cc(CCNC(=O)Cn3nc(C)c4nn(-c5ccccc5)c(C)c4c3=O)c2c1 is listed as Anaer choline gr early: -0.4; Anaer choline gr: i
Cc1cccc(NC(=O)C2CCCN(S(=O)(=O)Cc3ccc(F)cc3)C2)c1 (stereo unspecified) is listed as Anaer choline gr early: 0.63; Anaer choline gr: i

Screens deposited in PubChem by ICCB-Longwood Screening Facility, Harvard Medical School.

This is a subset; count on the stated rates, not on these rows.
